# Hedgehog cleavage: Drosophila hedgehog isoform A inhibitors, primary screen, biochemical, plate reader, single concentration (AID 588832). 8,000 tested, under 10 active. inhibition, % at 30.3 µM. Biochemical plate reader assay, Hedgehog inhibition; active compounds read high; in the data active = inhibition from about 57%;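 also: 0% = neutral control wells and 100% = positive control wells; cholesterol-driven self-cleavage of fly hedgehog protein by fluorescence polarization; read one hour after cholesterol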
# Active calls of the source: *. These rows are one share of the data; count on the stated rates, not on these rows.
SMILES,Hedgehog cleavage
CCN1CCN(CCCNC(=O)Cn2cc3c(n2)CCCC3)CC1,10.0
Cc1nc2ccc(S(=O)(=O)Nc3cccc(-c4nc5cccnc5s4)c3C)cc2s1,3.5
CCOc1ccc(NC(=O)N2CCC(n3c(=O)[nH]c4ccccc43)CC2)cc1,5.1
CC1CCN(c2nc3c(c(=O)n(C)c(=O)n3C)n2CCSc2ncccn2)CC1,10.7
COc1cccc(-c2nnc(SCC(=O)N3CC(C)CC(C)C3)o2)c1 (stereo unspecified),15.4
COCCn1c(SCC(=O)N2CCCc3ccccc32)nc2c(c1=O)SC(C)C2 (stereo unspecified),5.4
CC(=O)Nc1sc2c(c1C(c1cccc(F)c1)N1CCN(CCO)CC1)CCCC2 (stereo unspecified),8.7
Cc1ccc2c(cnn2C(=O)CCCC(=O)NC(C)c2ccccc2)c1 (stereo unspecified),3.5
Nc1oc2ccccc2c1C(=O)Cc1ccccc1O[C@@H]1O[C@H](CO)[C@@H](O)[C@H](O)[C@H]1O,6.5
CN1CCN(CCNC(=O)c2cc3c(=O)n(C)c4ccccc4c3n2C)CC1,8.3
C=C(C)C(O)COc1c2occc2c(OC)c2ccc(=O)oc12 (stereo unspecified),3.4
COc1ccc(N2CCN(S(=O)(=O)c3cc4c(cc3C)NC(=O)CO4)CC2)cc1,5.1
COc1cc(C(c2sc3nc(C)nn3c2O)N2CCc3ccccc3C2)cc(OC)c1OC (stereo unspecified),10.7
O=C(NCO)c1cccnc1,-1.7
CC(=O)N1C(C(=O)O)CSC1c1ccc(C)cc1 (stereo unspecified),12.9
Cc1cccc(CCNC(=O)CCS(=O)(=O)c2ccc3nc(C)sc3c2)c1,29.2
COCCN(CCNC(=O)c1ccc(NC2=NC3CS(=O)(=O)CC3S2)cc1)Cc1ccco1 (stereo unspecified),3.8
Cc1ccc(C(=O)Oc2ccc(/C=C3\C(=N)N4N=C(N5CCOCC5)SC4=NC3=O)cc2)cc1,0.0
COc1ccc(CCNC(=O)CCn2c(=O)oc3ccccc32)cc1,8.7
CSc1nnc2c(n1)OC(c1ccc(C(=O)O)cc1)N(C(C)=O)c1ccccc1-2 (stereo unspecified),12.5
Cc1ccc2c(C)c(C(=O)N(Cc3ccc(N(C)C)cc3)C3CCS(=O)(=O)C3)oc2c1 (stereo unspecified),1.8
O=C(O)CCC(=O)N1CCc2cc(S(=O)(=O)N3CCC(Cc4ccccc4)CC3)ccc21,5.2
COc1cc(O)cc2occ(-c3ccc(O)cc3)c(=O)c12,8.6
COc1ccc(-n2c(Cc3cccn3C)nnc2SCC(=O)Nc2cccc(C)c2C)cc1,24.3
CCN1CCN(C(=O)c2cc3c(=O)n(C)c4ccccc4c3n2C)CC1,6.3
CC(C)(C)c1ccc(OCC(=O)N(Cc2cccs2)C2CCS(=O)(=O)C2)cc1 (stereo unspecified),3.5
CCn1c(C(C)NC(C)=O)nc2ccccc21 (stereo unspecified),9.5
CC(=O)Cc1nsc(NC(=O)C2Cc3ccccc3C(=O)O2)n1 (stereo unspecified),1.7
COC(=O)COc1cccc2c(=O)n(CC(=O)N3CCCc4ccccc43)ccc12,0.9
COCCn1c(SCC(=O)Nc2ccc3c(c2)OCCO3)nc2c(c1=O)SC(C)C2 (stereo unspecified),0.0

# Reprinted at random: 2 compounds from above
SMILES,Hedgehog cleavage
CCOc1ccc(NC(=O)N2CCC(n3c(=O)[nH]c4ccccc43)CC2)cc1,5.1
COc1cc(O)cc2occ(-c3ccc(O)cc3)c(=O)c12,8.6

# Going on with the list.
SMILES,Hedgehog cleavage
COc1ccc(NC(=O)c2cc3c(=O)n(C)c4ccccc4c3n2C)cc1OC,9.5
Cc1csc(NC(=O)CSc2nc(C(C)C)nc3c2c(=O)n(C)c(=O)n3C)n1,-3.6
COc1cc(OC)c(NC(=O)c2cc(S(=O)(=O)N3CCOCC3)cn2C)cc1Cl,3.6
CCN1CCN(C(c2cccs2)C(C)NC(=O)c2ccccc2OC)CC1 (stereo unspecified),3.6
COc1cc(/C=C\C(=O)NCc2ccc3c(c2)cc(C)n3C)cc(OC)c1OC,7.0
Cc1noc(/C=C/N(C)C)c1S(=O)(=O)N1CCN(c2ccccc2)CC1,19.1
CN(CC(CC(=O)O)c1ccccc1)S(=O)(=O)c1ccc(Br)cc1 (stereo unspecified),0.0
CCN1CCN(C(=O)C2=CC(c3ccc(OC)cc3)=NS(=O)(=O)N2C)CC1,2.7
Cc1ccc(Cl)cc1N1CCN(S(=O)(=O)c2cc3c(cc2C)NC(=O)CO3)CC1,11.0
Cn1cc(SCC(=O)NCC2CCCO2)c2ccccc21 (stereo unspecified),3.6
Cc1ccccc1CNC(=O)C1CCN(c2nnc(N3CCCC3=O)s2)CC1,6.2
COc1ccc(C2=NS(=O)(=O)N(C)C(C(=O)N3CCc4ccccc4C3)=C2)cc1OC,20.8
COc1cc(/C=C/C(=O)O)ccc1O,3.5
Cc1cccc2c1cnn2C(=O)CCC(=O)N1CC(C)CC(C)C1 (stereo unspecified),1.7
COc1ccc(-c2noc(N3CCC(C(=O)N(C)c4ccccc4C)CC3)n2)cc1,14.7
CCc1ccc(C2CC(c3ccccc3)n3ncnc3N2)cc1 (stereo unspecified),17.4
Cc1cc(Nc2cc(F)ccc2C)n2ncnc2n1,15.0
COc1ccc(CNC(=O)C2=C(C)C(=O)OC23CCC(C)CC3)cc1 (stereo unspecified),-1.7
Cc1onc(-c2ccccc2Cl)c1C(=O)Nc1nnc(-c2ccc(Cl)cc2Cl)s1,-1.9
CCC(=O)NCCn1ccc2ccccc21,9.7
CSCC[C@H](NS(=O)(=O)c1ccc(C)cc1)C(=O)N1CCC(C(=O)N[C@@H](C)C(=O)O)CC1,5.2
Cc1cc(C)n2c(SCC#N)nnc2n1,6.5
O=C(CCC(=O)N1CCOc2ccccc21)Nc1ccccc1Br,6.8
COc1cccc(CNC(=O)CCC(=O)N2CC(C)Oc3ccccc32)c1OC (stereo unspecified),6.8
CCn1c(CNC(=O)COC)nc2ccccc21,0.9
CCOC(=O)c1ccc(N2CSC3=C(C#N)C(c4cccs4)CC(=O)N3C2)cc1 (stereo unspecified),7.1
CC(=O)NCc1cn2c(C)csc2n1,3.6
O=[N+]([O-])c1cccc(S(=O)(=O)N2CCCCC2c2cccnc2)c1 (stereo unspecified),0.0
Cc1ccc(N2CCN(S(=O)(=O)c3ccc(F)cc3)CC2)c(C)c1,15.4
CCN(CCNS(=O)(=O)c1ccc2[nH]c(=O)sc2c1)c1ccccc1,28.6
Cn1c(=O)c2c(SCC(=O)N3CCN(c4ccccc4)CC3)nc(C3CC3)nc2n(C)c1=O,4.4
Cc1ccc(-c2nc(CS(=O)CC(=O)NCCC(C)C)c(C)o2)cc1 (stereo unspecified),10.2
Cc1ccc2c(cnn2C(=O)CCC(=O)NCc2cccc(Br)c2)c1,5.2
CCOC(=O)N1CCN(C(=O)CSc2nc3c(cnn3-c3ccccc3)c(=O)[nH]2)CC1,5.1
COC(=O)c1cc(=O)n(-c2ccccc2)c(=Nc2ccccc2)s1,3.6
O=C(c1cc2ccccc2cc1OCC(O)CN1CCCCC1)N1CCCCC1 (stereo unspecified),1.7
CCOc1ccc(-n2nnc3c(=O)n(C/C=C/c4ccccc4)cnc32)cc1,9.7
Cc1c(C(=O)NNc2cc(=O)n(C)c(=O)n2C)cccc1[N+](=O)[O-],1.7
N#CCCN1CCN(S(=O)(=O)c2ccc(S(=O)(=O)NCc3ccccc3)cc2)CC1,4.5
CC1CCCCN1c1nnc(NC(=O)c2cc(-c3ccc(Br)cc3)on2)s1 (stereo unspecified),3.4
COc1ccc(-c2cc(=O)oc3cc(OC(C)C(=O)NC(Cc4c[nH]c5ccc(O)cc45)C(=O)O)ccc23)cc1 (stereo unspecified),-3.5
Cc1cc(C)n2nc(SCC#N)nc2n1,12.9
Cc1ccccc1N1C(=O)c2ccccc2C1Nc1cccnc1 (stereo unspecified),3.5
Cc1oc2cc3oc(=O)c(CCC(=O)NCCCN4CCCC4=O)c(C)c3cc2c1C,3.5
Cc1cccc2sc(NNC(=O)c3ccc(S(=O)(=O)N4CCc5ccccc5C4)cc3)nc12,6.4
COCCNC(=O)CS(=O)Cc1nc(-c2ccc(Cl)cc2)oc1C (stereo unspecified),-2.7
CCCc1cc(=O)oc2cc(OC(C)C(=O)NCC3CCC(C(=O)O)CC3)c(Cl)cc12 (stereo unspecified),7.2
Cc1cc2c(cc1S(=O)(=O)CCC(=O)NC1CCCCC1C)OCC(=O)N2 (stereo unspecified),11.0
COc1ccc(-n2nnc3c(=O)n(CC(=O)N4CCCc5ccccc54)cnc32)cc1,11.5
Cc1ccc(C2=CC(c3ccc(N(C)C)cc3)n3nnnc3N2)cc1 (stereo unspecified),7.2
C=CCc1ccc(O)c(-c2cc(CC=C)ccc2O)c1,3.4
COc1ccc(C(=O)Nc2cc3c(cc2C#N)OCO3)cc1S(=O)(=O)N1CCN(C)CC1,-4.2
CN(Cc1ccccc1)C(=O)c1cc(S(=O)(=O)N2CCOCC2)cn1C,5.8
O=C(CSc1nnc(Cn2c(=O)sc3ccccc32)n1-c1ccccc1)N1CCCCCC1,6.7
Cn1cc(C(N)=O)c2ccccc21,5.1
CC(C)=CC(O)C/C(C)=C/COc1ccc2ccc(=O)oc2c1 (stereo unspecified),8.6
CCCCSc1nc2c(c(=O)[nH]c(=O)n2C)n1CCc1ccccc1,1.8
COc1cccc(-n2nnc3c(=O)n(C/C=C/c4ccccc4)cnc32)c1,-1.8
COC(=O)c1ccc(NC(=O)Cn2cnc3c(nnn3-c3cccc(OC)c3)c2=O)cc1,5.2
CCC(C)NC(=O)CC1Oc2ccc(Cl)cc2NC1=O (stereo unspecified),10.5

# No new results follow: 15 of the compounds above.
SMILES,Hedgehog cleavage
COCCNC(=O)CS(=O)Cc1nc(-c2ccc(Cl)cc2)oc1C (stereo unspecified),-2.7
CCCc1cc(=O)oc2cc(OC(C)C(=O)NCC3CCC(C(=O)O)CC3)c(Cl)cc12 (stereo unspecified),7.2
Cc1cc2c(cc1S(=O)(=O)CCC(=O)NC1CCCCC1C)OCC(=O)N2 (stereo unspecified),11.0
COc1ccc(-n2nnc3c(=O)n(CC(=O)N4CCCc5ccccc54)cnc32)cc1,11.5
Cc1ccc(C2=CC(c3ccc(N(C)C)cc3)n3nnnc3N2)cc1 (stereo unspecified),7.2
C=CCc1ccc(O)c(-c2cc(CC=C)ccc2O)c1,3.4
COc1ccc(C(=O)Nc2cc3c(cc2C#N)OCO3)cc1S(=O)(=O)N1CCN(C)CC1,-4.2
CN(Cc1ccccc1)C(=O)c1cc(S(=O)(=O)N2CCOCC2)cn1C,5.8
O=C(CSc1nnc(Cn2c(=O)sc3ccccc32)n1-c1ccccc1)N1CCCCCC1,6.7
Cn1cc(C(N)=O)c2ccccc21,5.1
CC(C)=CC(O)C/C(C)=C/COc1ccc2ccc(=O)oc2c1 (stereo unspecified),8.6
CCCCSc1nc2c(c(=O)[nH]c(=O)n2C)n1CCc1ccccc1,1.8
COc1cccc(-n2nnc3c(=O)n(C/C=C/c4ccccc4)cnc32)c1,-1.8
COC(=O)c1ccc(NC(=O)Cn2cnc3c(nnn3-c3cccc(OC)c3)c2=O)cc1,5.2
CCC(C)NC(=O)CC1Oc2ccc(Cl)cc2NC1=O (stereo unspecified),10.5

# (cont.)
SMILES,Hedgehog cleavage
CC(=O)Nc1cc(-c2nn3c(C)nnc3s2)ccc1C,24.3
O=C(CN1CCOc2ccccc21)N1CCN(c2cccc(Cl)c2)CC1,8.3
Cc1cc(OCC(=O)N2CCC[C@@H]2C(=O)O)c2c(C)c(C)c(=O)oc2c1,3.5
COc1ccccc1N1CCN(C(CNC(=O)C2CCCCC2)c2cccnc2)CC1 (stereo unspecified),5.8
COC(=O)C1(C(F)(F)F)N=C2Sc3ccccc3N2C(N2CCOCC2)=N1 (stereo unspecified),8.4
Cc1ccc(C2=NS(=O)(=O)N(C)C(C(=O)NCc3ccc(F)cc3)=C2)cc1,5.1
COC(=O)Cn1cnc2c(nnn2-c2ccc(F)cc2)c1=O,5.1
COc1ccccc1-n1c(SCC(=O)Nc2ccc(F)cc2)nc2c(c1=O)SCC2,7.0
O=C(CCC(=O)n1ncc2ccccc21)NCc1ccc(F)cc1,0.0
Cc1ccc2c(c1)NC(=O)C(CC(=O)NCCCN1CCCC1=O)O2 (stereo unspecified),25.0
Cc1ccc(-c2nn3c(C)nnc3s2)cc1NC(=O)c1ccco1,12.9
COc1ccc2c(c1OC)c(=O)n1c3ccc(OC(C)C(=O)NCCCN4CCOCC4)cc3c3ccnc2c31 (stereo unspecified),3.4
O=C(O)C(O)Cc1c[nH]c2ccccc12 (stereo unspecified),7.2
Cc1ccnc(SCCn2c(N3CCN(Cc4ccccc4)CC3)nc3c2c(=O)[nH]c(=O)n3C)n1,8.5
C=CCNC(=O)c1cc(-c2ccccc2O)on1,4.4
COc1ccc(C2=NS(=O)(=O)N(C)C(C(=O)NCc3cccs3)=C2)cc1OC,11.8
CCc1nc(SCC(=O)NCc2ccccc2)c2c(=O)n(C)c(=O)n(C)c2n1,6.2
Cc1nc2sccn2c(=O)c1S(=O)(=O)NCc1ccccc1,5.1
Cc1ccc(S(=O)(=O)NC(C)C(c2cccs2)N2CCN(c3ccccc3)CC2)cc1 (stereo unspecified),12.8
COc1cc(NS(=O)(=O)c2cc3[nH]c(=O)c(=O)[nH]c3cc2C)cc(OC)c1OC,4.2
CCc1nnc(NC(=O)C2Cc3ccccc3C(=O)O2)s1 (stereo unspecified),3.8
O=C(Cn1cc2c(n1)CCCC2)Nc1cc(-c2cccc(Cl)c2)no1,33.3
COc1cc(OC)c(NC2c3ccccc3C(=O)N2c2cc(C)ccn2)cc1Cl (stereo unspecified),5.2
CCCc1cc(C(=O)NC2CCCC2)no1,0.0
COc1ccc(N2CCN(S(=O)(=O)c3ccc4c(c3)NC(=O)C(C)C(=O)N4)CC2)cc1 (stereo unspecified),3.4
CC(C)c1nc(SCc2ccccn2)c2c(=O)n(C)c(=O)n(C)c2n1,5.4
COc1ccc(C2CC(=O)Oc3cc(O)cc(O)c32)cc1 (stereo unspecified),0.0
COc1ccc(C)cc1NC(=O)CSc1nc2ccccc2nc1N1CCCCC1,8.4
O=C(Cn1cnc2c(nnn2-c2cccc(Cl)c2)c1=O)NCc1ccccc1,3.6
CCc1ccccc1S(=O)(=O)Cc1ccc(C(=O)NC(C)C)o1,10.7
COc1ccc(N2CCN(C(=O)c3ccc4c(Cl)c5c(nc4c3)CCCC5)CC2)cc1,8.7
Cc1ccccc1Cn1c(CN2CCN(C(=O)c3ccco3)CC2)nc2c1c(=O)n(C)c(=O)n2C,3.6

# High-throughput results as filed in PubChem.
